Vaccinia mCherry: vaccinia inhibition (mCherry reporter) | Potency, µM (series often up to 36.5 µM), for inactives: top-dose activity change, negative = inhibition, hits mostly inhibitors | 310,000 compounds, 0.63% hits | Vaccinia virus mCherry reporter infection, fluorescence; about a quarter of the inactives have no number; active = well fitted inhibition curve with a large enough effect; inconclusive = small, poorly fitted or top-dose-only effect; inactive = no such curve, though single readings can be large or run the other way; tested in A549 cells; also: nearly all actives have a fitted effect of over 35% in size; inactives centre near -10
VACV Venus inh: inhibitors of vaccinia virus (Venus reporter); Vaccinia virus Venus reporter expression, fluorescence; 330,000 compounds, 0.46% hits; Potency, µM (top dose mostly 36.5 µM), for the others: at the highest dose activity change, negative = inhibition, actives largely listed as inhibitors; active means well fitted inhibition curve with a large enough effect; inconclusive means small, poorly fitted or top-dose-only effect; inactive means no such curve, though single readings can be large or run the other way; tested in A549 cells; also: nearly all actives have a fitted effect of over 30% in size; inactives centre near -10
* = called active by the depositor; i = inactive; ? = inconclusive; nt = not tested or not shown; [ ] = another dose, or the depositor's remark. % is scaled to controls: 0 for no effect and ±100 for the full control effect; potency is read from the fitted curve at half-maximal effect.

SMILES	Vaccinia mCherry	VACV Venus inh
CSc1ccc(C(C(C(=O)c2cccs2)N2CCOCC2)N2CCOCC2)cc1 (stereo not given)	nt	-13%
O=C(Cn1nc(-c2ccc(Cl)cc2)ccc1=O)NCCN1CCOCC1	-1%	-8%
Cc1c(-c2csc(N)n2)c2ccccc2n1C	?	-13%
CC(C)N(C)C(=O)C(=O)c1cccn1-c1cccc(Cl)c1C#N	i	-21%
O=C(NCc1ccco1)C1CC(=O)N(CCc2ccccc2)C1 (stereo not given)	-27%[1.46 µM]	-11%
CCOC(=O)c1cc(C(=O)c2cccs2)n2ccc(C(C)=O)cc12	nt	1%
CCC(=NN=C(CC)c1ccccc1O)c1ccccc1O	-10%	-1%
CN(C)/C=C1/Nc2ccccc2C1=O	-5%	-3%
CS(=O)(=O)n1nc(-c2ccco2)nc1N	i	-5%
O=c1cc(N2CCCCCC2)[nH]c(=O)n1-c1ccc(Cl)cc1	i	-8%
COc1ccc(OC)c(C2=NOC(C(=O)Nc3ccc4c(c3)OCCO4)C2)c1 (stereo not given)	i	-9%
O=c1c2cc3c(nc2ncn1Cc1ccc(Cl)cc1)CCCC3	-25%[7.34 µM]	-15%
CCC(c1nnnn1-c1ccc2c(c1)OCCO2)N1CCN(CC)CC1 (stereo not given)	-6%	-6%
COC(CNC(=O)c1ccc2c(c1)nc(C)n2-c1ccc(F)c(F)c1)OC	-21%	-10%
CCC1CN(C(=O)N2CCC(C(=O)Nc3ccccc3F)CC2)c2ccccc2O1 (stereo not given)	7%	-1%
Cc1ccn2c(=O)c(C(=O)NCCc3ccccc3)c(O)nc2c1	-6%	8%
Cc1cc(C)c2c(CC(=O)O)coc2c1	i	-8%
CCOC(=O)N1CCc2c(sc3c2c(=O)n(CCc2ccccc2)c(=O)n3CC(=O)Nc2cccc(C)c2)C1	1%	-5%
O=C(C[C@@H]1C/C=C\C[C@H](NC(=O)OCC2c3ccccc3-c3ccccc32)C(=O)OC[C@@H]2CCCN2C1=O)NCCO	i	-19%
CCOC(=O)c1cc2c3ccccc3n(CC)c2nc1N	i	0%
COc1ccc(N=Nc2cnc(C)nc2-c2ccccc2)cc1	nt	-29%
Cc1nn(Cc2c(Cl)cccc2Cl)c(Cl)c1/C=C/C(=O)OCC(=O)NCC(F)(F)F	nt	-1%
O=C(NC1CCCC1)C(c1ccco1)N(C(=O)c1ccco1)c1ccccc1 (stereo not given)	-10%	-11%
CCCCCNC(=O)N[C@H](C(=O)O)C(C)C	i	-3%
C=CCN1C(=S)N[C@@H]2CS(=O)(=O)C[C@@H]21	i	-9%

Compounds above that have an aryl methoxy group (two):
SMILES	Vaccinia mCherry	VACV Venus inh
COc1ccc(OC)c(C2=NOC(C(=O)Nc3ccc4c(c3)OCCO4)C2)c1 (stereo not given)	i	-9%
COc1ccc(N=Nc2cnc(C)nc2-c2ccccc2)cc1	nt	-29%

A draw from above in order of SMILES length, ascending:
SMILES	Vaccinia mCherry	VACV Venus inh
CN(C)/C=C1/Nc2ccccc2C1=O	-5%	-3%
Cc1c(-c2csc(N)n2)c2ccccc2n1C	?	-13%
CCC(=NN=C(CC)c1ccccc1O)c1ccccc1O	-10%	-1%
CCC(c1nnnn1-c1ccc2c(c1)OCCO2)N1CCN(CC)CC1 (stereo not given)	-6%	-6%
CC(C)N(C)C(=O)C(=O)c1cccn1-c1cccc(Cl)c1C#N	i	-21%
COC(CNC(=O)c1ccc2c(c1)nc(C)n2-c1ccc(F)c(F)c1)OC	-21%	-10%
CCC1CN(C(=O)N2CCC(C(=O)Nc3ccccc3F)CC2)c2ccccc2O1 (stereo not given)	7%	-1%

Next entries follow.
SMILES	Vaccinia mCherry	VACV Venus inh
Cc1nc2cc3nc(C)sc3cc2s1	nt	-11%
CCOc1ccc2nc(NS(=O)(=O)c3ccc4c(c3)n(C)c(=O)n4C)sc2c1	?	4%
CN(CCc1ccccn1)C(=O)c1cccnc1Oc1ccc(Cl)cc1	-14%	0%
COc1cc(-c2cc(C(=O)NCc3ccco3)c3ccccc3n2)cc(OC)c1OC	-18%	-9%
COc1ccc(OC)c(NC(=O)c2cc(S(=O)(=O)N(C)C)ccc2N2CCCC2)c1	-9%	-11%
COc1cc(Cl)c(C)cc1NC(C)C(=O)Nc1cc(C(F)(F)F)ccc1N1CCOCC1 (stereo not given)	-7%	-11%
CC[C@@]12C(=O)N(c3ccc(C)cc3)C(=O)N1[C@H](c1ccc(OC)cc1)[C@@H]1C(=O)N(C(C)(C)C)C(=O)[C@@H]12	i	-2%
CC(C)(C)SCCNC(=O)c1ccc(CN2CCc3ccccc3C2)cc1	-16%	-13%
COc1cc(-c2ccc(=O)[nH]n2)ccc1OC(F)F	0%	-16%
CCOc1cc2c(cc1OCC)-n1cccc1C(c1ccccc1OC)NC2 (stereo not given)	-12%	0%
O=C(O)c1cccc2c1Oc1ccccc1S2(=O)=O	0%	-14%
Cc1cc(NC(=O)c2cc(-c3ccc(Cl)c(Cl)c3)on2)n(-c2ccccc2)n1	-11%	-18%
O=C(CCN1C(=O)c2ccccc2C1=O)Nc1ccc(-c2nc3ccccc3s2)cc1	-21%	-9%
CNC1C(O)[C@@H]2OC(O[C@@H]3C(O)C(O)C(N)C[C@H]3N)C(N)C[C@H]2O[C@H]1O[C@@H]1OC(CO)C(N)C(O)C1O (stereo not given in full)	-5%	-6%
COc1ccc([C@H]2Cc3cccc(O)c3C(=O)O2)cc1O	?	-4%
CS(=O)(=O)N1CCN(C(=O)CSc2ccccc2)CC1	-12%	-21%
Cc1cc(=O)nc2c3ccccc3n(CC(=O)Nc3ccccc3Br)n12	8%	-5%
CCCCn1c(N)c(N(Cc2ccccc2OC)C(=O)C(C)Oc2ccc(Cl)cc2)c(=O)[nH]c1=O (stereo not given)	-22%	-19%
COc1ccc(Cl)cc1NC(=O)c1ccoc1C	nt	?
CCN(CC1COc2ccccc2O1)C(=O)c1ccc(Cl)c(S(=O)(=O)N2CC(C)OC(C)C2)c1 (stereo not given)	-25%	-21%
Nn1cnnc1N/N=C/c1ccc(Cl)c([N+](=O)[O-])c1	?	?
CCCSc1ccc(C(=O)Nc2ccc(F)cc2F)cn1	i	-26%
CCOC(=O)CSc1nc(N2CCOCC2)c2c(c1C#N)CC(C)(C)N(C)C2	-20%	?
CCOCCn1ccc2c(OCC(=O)Nc3cccc(F)c3)cccc2c1=O	-4%	1%
O=C(NNC(=S)Nc1ccccc1Cl)c1ccccc1Br	-16%	-16%

Single records (already shown).
COc1cc(-c2ccc(=O)[nH]n2)ccc1OC(F)F in the list: Vaccinia mCherry = 0%; VACV Venus inh = -16%
COc1ccc(OC)c(NC(=O)c2cc(S(=O)(=O)N(C)C)ccc2N2CCCC2)c1 in the list: Vaccinia mCherry = -9%; VACV Venus inh = -11%
O=C(NNC(=S)Nc1ccccc1Cl)c1ccccc1Br in the list: Vaccinia mCherry = -16%; VACV Venus inh = -16%

(further entries)
SMILES	Vaccinia mCherry	VACV Venus inh
CC1CCN(C(=O)CSc2c(C(C)C)cnc3c2c(=O)n(C)c(=O)n3C)CC1	-5%	-18%
Cc1ccsc1CN(C(=O)c1oc2ccc(F)cc2c1C)C1CCS(=O)(=O)C1 (stereo not given)	-24%	-22%
COc1cc(/C=N/Nc2nc(=O)[nH]nc2C)ccc1O	?	-14%
Cc1cc(Cl)ccc1NC(=S)NCCCN1CCCC1=O	i	-4%
COc1ccc(OC)c(CCNC(=O)CN2C(=O)COc3ccc(S(=O)(=O)N4CCC(C)CC4)cc32)c1	-23%	-21%
C[C@@H]1CN([C@@H](C)CO)C(=O)c2cc(NC(=O)C3CC3)ccc2O[C@H]1CN(C)C	-11%	0%
COc1ccc(CNC(=O)[C@]2(C)CCC[C@@]3(C)C4CC[C@@]5(C)C[C@]4(CCC32)CC5=O)cc1 (stereo not given in full)	-12%	-24%
Cc1ccc(NC(=O)Cn2cnc(C(=O)Nc3ccc(C)c(C)c3)n2)cc1C	-1%	-1%
CC(C)Cn1c(-c2ccccc2)nc2ccccc2c1=O	-23%	-12%
CCn1c(SCC(=O)NCc2cccs2)nnc1-c1ccncc1	i	-9%
Cc1ccc(C)c2[nH]c(=O)c(CCNC(=O)C(C)(C)C)cc12	-5%	-8%
COc1ccc(NC(=S)Nc2cccc(C)n2)cc1	-28%	-19%
CCOc1ccc(C=C2C(=O)NC(=S)NC2=O)cc1OCC	-8%	-13%
O=S1(=O)C=C(N2CCCCC2)c2ccccc21	-7%	0%
O=C(COc1ccccc1)NC1C(=O)N2C(C(=O)O)=C(Cl)CSC12 (stereo not given)	-27%	-1%
CC(=O)NC(c1cccc(F)c1)c1nc(-c2ccc(C)c(C)c2)cs1 (stereo not given)	i	-14%
CC(C)(C)NC(=O)C(=O)N/N=C/c1cccs1	-11%	-5%
Cc1ccc(CNC(=O)c2ccc3c(c2)N(Cc2ccccc2F)C(=O)c2ccccc2S3(=O)=O)cc1	4%	0%
O=C(COC(=O)c1ccc(Br)c(S(=O)(=O)N2CCOCC2)c1)NC1CC1	-1%	3%
c1ccc(-c2nc(-c3ccncc3)no2)cc1	-14%	-5%
CCOC(=O)c1cnc2c(C)c(Cl)ccc2c1Nc1ccc(C)cc1C	-13%	8%
Cc1cc(C(=O)N/N=C/c2ccccc2)c(C)o1	i	-16%
CS(=O)(=O)Nc1ccc([N+](=O)[O-])cc1OC1CCCCC1	-15%[60.7 µM]	-16%[60.7 µM]
CCOc1ccccc1NC(=O)c1c(NC(=O)c2cccc(C)c2)sc2c1CCCC2	-13%	-1%
CC1(C(=O)NS(=O)(=O)c2ccc(F)cc2F)CCN1C(=O)C1CCCCC1 (stereo not given)	13%	-20%

In another format: entries from further up
molecule | Vaccinia mCherry | VACV Venus inh
COc1cc(/C=N/Nc2nc(=O)[nH]nc2C)ccc1O | ? | -14%
CCOc1ccccc1NC(=O)c1c(NC(=O)c2cccc(C)c2)sc2c1CCCC2 | -13% | -1%
CC1(C(=O)NS(=O)(=O)c2ccc(F)cc2F)CCN1C(=O)C1CCCCC1 (stereo not given) | 13% | -20%
O=C(COC(=O)c1ccc(Br)c(S(=O)(=O)N2CCOCC2)c1)NC1CC1 | -1% | 3%

(list continues)
SMILES	Vaccinia mCherry	VACV Venus inh
COc1ccc(C)cc1S(=O)(=O)NCC(c1ccc2c(c1)OCO2)N1CCN(C)CC1 (stereo not given)	-18%	-16%
CC(C)C12CN3CC(C(C)C)(CN(C1)C3c1cccnc1)C2=O (stereo not given)	-28%[1.46 µM]	-18%
O=C(COc1cccc([N+](=O)[O-])c1)NN1C(=O)c2ccccc2C1=O	-13%	-5%
Cc1ccc(S(=O)(=O)N2CCN(S(=O)(=O)c3ccccc3)C2c2ccc(N(C)C)cc2)cc1 (stereo not given)	-6%	-11%
O=C(NCc1ccc(N2CCCC2=O)cc1)Nc1cccc2ccccc12	-13%	-14%
CCOc1ccc(N2CC(C(=O)Nc3ccc(S(=O)(=O)Nc4ncccn4)cc3)CC2=O)cc1 (stereo not given)	nt	-6%
CN(C(=O)CSc1nnc(-c2ccccc2)n1C)C1CCS(=O)(=O)C1 (stereo not given)	-9%	-6%
COc1ccc2c(-c3ccccc3)cc(SCC(N)=O)nc2c1	-2%	3%
Cc1cccc(C)c1-n1c(=O)n(Cc2ccccc2)c(=O)c2[nH]cnc21	i	-22%
CCCCS(=N)(=O)CCC(N)C(=O)O (stereo not given)	-10%	3%
NC(=O)C(NC(=O)OCc1ccccc1)c1ccccc1 (stereo not given)	i	-6%
Cc1ccc(S(=O)(=O)N2[C@@H](c3ccc(F)cc3)C(C(=O)O)=CC[C@H]2c2cccc(Cl)c2)cc1	-7%	-5%
CCNC(=O)[C@H]1O[C@@H](n2cnc3c(N)ncnc32)[C@H](O)[C@@H]1O	-2%	-7%
CS(=O)(=O)c1ncc(Cl)c(C(=O)N(Cc2ccc(Cl)cc2)Cc2ccco2)n1	?	16µM*

Screens: PubChem, National Center for Advancing Translational Sciences (NCATS)
